Bioassay records (PubChem BioAssay)
LT uptake inh = blocks cellular internalization of anthrax lethal toxin; Cells, anthrax lethal toxin internalization, FRET ratio (460/530); Potency, µM (doses to about 40 µM), for the others: at the top dose activity change, negative = inhibition, most hits filed as inhibitors; 70,000 tested, 0.67% active; active = well fitted falling ratio curve with the 530 nm signal flat; inconclusive = other ratio curves, or a change in one channel alone; inactive = flat curves in the ratio and both channels; the % refers to the ratio; further: on the % scale 0 is the no-effect control and ±100 the full control effect; nearly all actives have a fitted effect of over 50% in size; tested in ME-180 cells; beta-lactamase reporter
Prx2 Sm inh = Schistosoma mansoni Prx2 inhibition. Potency, µM. S. mansoni Prx2 activity coupled to TGR/GSH (TGR is thioredoxin glutathione reductase), NADPH fluorescence loss, qHTS; some inactives read as strong as hits. 65,000 tested, 0.07% active; active means full or partial inhibition curve with a strong effect at the top dose; inconclusive means weaker partial or single-point curve; inactive means no accepted curve; further: series up to 57 µM; many of its hits are not listed in these tables
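Activity is read as the drop in NADPH fluorescence (365/450 nm), recorded every 30 sec for 8 min after H2O2 addition. Prx2 is coupled to TGR-driven NADPH oxidation through glutathione, in phosphate buffer pH 7.4.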
The depositor's hits bear a star; ? = inconclusive; . = not tested or not shown; [ ] = remark or other dose. Potency means the concentration at half of the fitted maximal effect. This is a subset. The share of hits here may be higher or lower than overall.

SMILES	LT uptake inh	Prx2 Sm inh
O=C(O)Cc1c[nH]c2ccc(F)cc12	?	>57
COCC(=O)Nc1cccc(C(F)(F)F)c1	-16%	>57
O=C(Cn1c(=O)c2c(ncn2Cc2ccccc2)n(Cc2ccccc2)c1=O)NC1CC1	5%	>57
c1ccc(CCC2=NCCn3cccc32)cc1	0%	>57
CCOc1ccccc1NC(=O)C1CC2CCCC(C1)C2=O (configuration not stated)	?	>57
CCCCn1c(CCNC(=O)c2cccs2)nc2ccccc21	-3%	>57
CC(C)C(c1nnnn1Cc1ccco1)N1CCN(c2cccc(Cl)c2)CC1 (configuration not stated)	?	>57
CC[N+](CC)(CC(=O)Nc1c(C)cccc1C)Cc1ccccc1	5%[3.58 µM]	>57
COc1cccc(NC(=O)c2nc3nc(C)cc(C(F)F)n3n2)c1	?	>57
COc1ccc2c(c1)c(CCN1CCOCC1)c(C)n2C(=O)c1cccc(Cl)c1Cl	13µM*	.
c1ccc(CCCCN2CCC(c3ccccc3)CC2)cc1	?	>57
CCn1cc(C(=O)OCC(=O)N(C)C2CCS(=O)(=O)C2)c(=O)c2ccc(C)nc21 (configuration not stated)	11%	>57
O=C(NCC(c1ccc(F)cc1)N1CCOCC1)c1ccc(Br)o1 (configuration not stated)	0%	>57
CCCc1c(CC)c(=N)c2ccccc2n1C	-10%	>57
CC(=O)/C(=C\c1ccccc1F)C(=O)c1ccccc1	-18%[8 µM]	>57

Some of the entries above in another layout.
CCCCn1c(CCNC(=O)c2cccs2)nc2ccccc21
  LT uptake inh: -3%; Prx2 Sm inh: >57

CC(=O)/C(=C\c1ccccc1F)C(=O)c1ccccc1
  LT uptake inh: -18%[8 µM]; Prx2 Sm inh: >57

CCCc1c(CC)c(=N)c2ccccc2n1C
  LT uptake inh: -10%; Prx2 Sm inh: >57

CCOc1ccccc1NC(=O)C1CC2CCCC(C1)C2=O (configuration not stated)
  LT uptake inh: ?; Prx2 Sm inh: >57

Continuation.
SMILES	LT uptake inh	Prx2 Sm inh
CCN1C(=O)C(C(=O)NC(C)c2ccccc2)C2CC1(C)Oc1ccccc12 (configuration not stated)	?	>57
Cc1[nH]c(=O)[nH]c1CN1CCCCC1	-13%	>57
COc1cc(OC)cc(C(=O)N(Cc2cc3cc(C)ccc3[nH]c2=O)C(C)C)c1	-4%	>57
CCc1nnc(NC(=O)c2ccc(S(=O)(=O)N(CCOC)CCOC)cc2)o1	3%	>57
CCN1CCN(C(=O)C(NS(=O)(=O)c2ccc3nc(C)sc3c2)C(C)C)CC1 (configuration not stated)	0%	>57
COc1cccc(Cn2c(N)c(C#N)c3nc4ccccc4nc32)c1OC	?	>57
Cc1ncc(CN2CC=C(c3ccccc3)CC2)c(N)n1	-9%	.
Cc1c(N=Cc2cccs2)c(=O)n(-c2ccccc2)n1C	6%	.
CCOC(=O)c1ccccc1NC(=O)c1ccc(Cl)c(S(=O)(=O)N2CCOCC2)c1	6%	>57
CCOc1ccc(-n2c(=S)sc3c(=O)[nH]c(SCC(=O)NCc4ccco4)nc32)cc1	-3%	>57
CC(=O)N1CCC2(CCN(Cc3ccccc3)CC2)CC1	2%	>57
O=C(Nc1ccc(Cl)cc1)NC1CCS(=O)(=O)C1 (configuration not stated)	-7%	.
COC(=O)c1ccc(OC)c(CSc2nnc(COc3ccc(OC)cc3)o2)c1	?	>57
CC(=O)c1cccc(NC(=O)C2CCCN2S(=O)(=O)c2cccc3cccnc23)c1 (configuration not stated)	-20%	>57
COC(=O)[C@@]1(Cc2ccc(OC)cc2)[C@H]2c3cc(C(=O)N4CCCC4)n(Cc4ccc(O)c(OC)c4)c3C[C@H]2CN1C(=O)c1ccccc1	?	>57
CCN1CCN(C(c2ccccc2)c2nnnn2CCc2ccc(OC)c(OC)c2)CC1 (configuration not stated)	-2%	>57
Cc1nc2ccccc2c2nc(NC(=O)Cc3ccccc3)nn12	-3%	>57
COc1c(Cl)ccc(Cl)c1C(=O)NC(=O)N1CCOCC1	11%	>57
O=C(Nc1cccnc1)c1cc(-c2cccs2)on1	9%	>57
CC(=O)Nc1ccccc1OP1(=O)COc2ccccc2OC1	-7%	>57
CS(=O)(=O)N1CCCC(C(=O)N2CCC3(CC2)OCCO3)C1 (configuration not stated)	5%	>57
NNC(=O)c1ccc(O)cc1	-1%	>57
COc1cc(OC)cc(OCC(O)Cn2ccnc2C)c1 (configuration not stated)	-10%	>57
Cc1cccc(CNc2ccnc(-c3ccoc3)n2)c1	-1%	>57
Nc1c(C(=O)NCc2ccc3c(c2)OCO3)c2nc3ccccc3nc2n1CCCN1CCOCC1	?	>57
Cn1c(=NC(=O)c2cnccn2)sc2ccccc21	-1%	>57
O=C(OCc1c(Cl)nc2sccn12)c1cc2c(s1)CCCC2	-14%	>57
CCOC(=O)N1CCN(C(=O)CCn2c(=S)[nH]c3cc(OCC)c(OCC)cc3c2=O)CC1	-14%	>57
Cc1ccc(C)c2[nH]c(=O)c(CN(CCN3CCOCC3)Cc3nnnn3CC3CCCO3)cc12 (configuration not stated)	2%	>57
Cc1nc2ccccc2nc1CSc1nncs1	11%	>57
O=C(CN1CCCC1)Nc1ccc(NC(=O)Nc2ccccc2)cc1	3%	>57
O=C(CSc1ncn[nH]1)N1CCN(c2nnc(-c3ccccc3)c3ccccc23)CC1	2%	>57
O=c1[nH]cnc2c1sc(=S)n2-c1ccccc1	0%	>57
Nc1ccccc1Cl	2%	.
COC(=O)N1CN(C(=O)OC)CN(C(=O)OC)C1	-4%	>57
COc1ccc(S(=O)(=O)Nc2cccc(C)n2)c2ccccc12	-22%	>57
OB(O)c1ccc(Br)cc1	-13%	.
CC1(C)CC(=O)c2cc(OCC(=O)NCCN3CCCc4ccccc43)ccc2O1	-6%	>57
C(=NC1CCCCC1)=NC1CCCCC1	4µM*	.
O=C(c1ccco1)N1CCN(C(=O)C2CCCO2)CC1 (configuration not stated)	.	>57
COc1ccccc1CNC(=O)CCn1c(=O)sc2ccccc21	10%	>57
CC(C)Sc1nc(SCC(=O)NCc2ccco2)c2c3c(sc2n1)COC(C)(C)C3	-9%	>57
COc1ccccc1NC(=O)NCC(=O)Nc1ccc(F)c(F)c1	-3%	.
O=C1C(=O)c2ccccc2C(O)=C1Cc1ccccc1	-1%[8 µM]	>57
O=C(c1ccccc1-c1nc2ccccc2[nH]1)N1CCOCC1	-5%	>57
O=C(/C=N/O)NCCN1CCCCC1	-20%	>57
CC(CNC(=O)c1cncc(O)c1)NC(=O)c1cncc(O)c1 (configuration not stated)	-1%	>57
COc1ccc(CCNC(=O)c2ccn[nH]2)cc1OC	-13%	>57
CN1CCN(C(=O)Cn2c(=O)oc3cc(S(=O)(=O)NCc4ccccc4)ccc32)CC1	15%	>57
CCN1CCN(c2ccc(NC(=O)Cc3ccccc3)cc2)CC1	13%	>57
NCCC[C@@H](CC(=O)N[C@@H]1CCCC[C@H]1C(=O)N[C@H](CC(=O)N[C@@H](CCC(=O)O)CC(=O)O)Cc1c[nH]c2ccccc12)NC(=O)C[C@H](CO)NC(=O)[C@@H]1CNCC[C@H]1N	2%	>57
Cc1ccccc1-c1n[nH]c(=S)o1	9%	>57
O=C(CCNc1cc(Cl)cc(Cl)c1)c1ccco1	-22%	>57
COc1ccccc1-n1cnc2cc(C(=O)NCCCN3CCOCC3)ccc21	8%	>57
CCC1(C)N(O)C(C)(C)C(c2ccc(OC)cc2)=[N+]1[O-] (configuration not stated)	?	.
Cc1ccc2c(CC(=O)O)coc2c1	6%	>57
Cc1noc(C)c1-c1ccc2ncnc(NCc3cccs3)c2c1	11%	>57
CCOc1ccc(S(=O)(=O)Nc2cc(Cl)ccc2O)cc1	5%	>57
CSc1nc(-c2ccco2)nn1C(=O)Cc1ccccc1	-6%	>57
C=CCn1c(Cc2nc3ccc(Cl)cc3[nH]2)n[nH]c1=S	?	>57
Further entries:
SMILES	LT uptake inh	Prx2 Sm inh
CC(=O)Nc1nc(C)c(-c2csc(Nc3ccc(O)cc3)n2)s1	?	>57
COc1cccc(CSc2nc3sc(C)c(C)c3c(=O)n2Cc2ccco2)c1	-6%	>57
C[N+](C)(N)Cc1csc(-c2ccc(Cl)cc2)n1	-8%[8 µM]	>57
COc1ccc(N2CCN(C(=O)CC(NC(N)=O)c3cccc(Oc4ccccc4)c3)CC2)cc1 (configuration not stated)	0%	>57
Cc1nc2cccc(C(=O)NCc3ccccc3)c2o1	-8%	>57
C=CCn1c(SCC(=O)NCc2ccco2)nc2sc3c(c2c1=O)CCC3	5%	>57
COc1cccc(C2/C(=C(\O)c3c(C)nc4c(C)cccn34)C(=O)C(=O)N2CCCN(C)C)c1 (configuration not stated)	?	>57
CCCCc1[nH]nc2c1C1(C(=O)N(CC)c3ccccc31)C(C#N)=C(N)O2 (configuration not stated)	?	>57
CCOc1ccccc1N(CC(=O)O)S(=O)(=O)c1ccc(C)cc1	5%	>57
COc1c2c(c3c(c1CCC(=O)O)OC(C)(C)C=C3)OC(C)(C)C=C2	-2%[8 µM]	>57
Cc1ccc(-c2nnc(SCC(=O)N3CCCc4ccccc43)n2N)cc1	3%	>57
CC1CCCC(C)N1C(=O)Nc1cccc(Cl)c1 (configuration not stated)	-22%	.
Cc1ccc2c(c1)N(Cc1ccc3c(c1)OCO3)C(=O)C(C)O2 (configuration not stated)	?	>57
COc1ccc(C2C=C(c3ccc(Br)s3)Nc3ncnn32)cc1OC (configuration not stated)	?	>57
Cn1c(SCC(=O)N2c3ccccc3Sc3ccc(Cl)cc32)nnc1-c1ccco1	?	>57
O=C(Nc1ccc2c(c1)OCCO2)NC12CC3CC(CC(C3)C1)C2	-13%	>57
COc1ccc(S(=O)(=O)N2CCOCC2)cc1C(=O)Nc1ccon1	-11%	>57
CCOC(=O)N1CCC(c2nc(C)sc2C(=O)O)CC1	3%	>57
Cc1ccc(NCc2nnc(SCC(N)=O)n2CCc2ccccc2)cc1	0%	>57
CCN1C(=O)/C(=C/N2CC(C)CC(C)C2)SC1=S (configuration not stated)	?	>57
Cc1ccccc1-c1nc(CS(=O)(=O)CC(=O)NCCCN2CCCC2=O)c(C)o1	0%	>57
CCCCOc1cccc(C2(C(=O)O)CCCC2)c1	0%	>57
Cn1c(C(=O)NCCN2CCc3ccccc3C2)cc2c(=O)n(C)c3ccccc3c21	7.9µM*	>57
Cc1cc2n(n1)C(c1cn(-c3ccccc3)nc1C)Nc1ccccc1-2 (configuration not stated)	3%	>57
Cc1oc(C(=O)O)cc1COc1cccc2cccnc12	-3%	.
O=S1(=O)CCC(NS(=O)(=O)/C=C/c2ccccc2)C1 (configuration not stated)	11%	>57
Cc1ccc2oc(=O)c3cnn(CC(=O)NCCN(C)C)c3c2c1	-4%	>57
CS(=O)(=O)N1CCC2(CC1)CN(C(=O)Nc1ccccc1)C2	1%	>57
Cc1ccc(-c2nn(-c3ccccc3)c3[nH]c(=O)c(CNCCN(C)C)cc23)cc1	4%	>57
CCC(=O)N1CCc2cc(S(=O)(=O)CCC(=O)Nc3ccc(CC)cc3)ccc21	-15%	>57

Single records, as listed above. Order of values: LT uptake inh	Prx2 Sm inh
CS(=O)(=O)N1CCC2(CC1)CN(C(=O)Nc1ccccc1)C2 is listed with 1%	>57
O=S1(=O)CCC(NS(=O)(=O)/C=C/c2ccccc2)C1 (configuration not stated) is listed with 11%	>57
COc1ccc(S(=O)(=O)N2CCOCC2)cc1C(=O)Nc1ccon1 is listed with -11%	>57
Cc1ccccc1-c1nc(CS(=O)(=O)CC(=O)NCCCN2CCCC2=O)c(C)o1 is listed with 0%	>57
Cc1cc2n(n1)C(c1cn(-c3ccccc3)nc1C)Nc1ccccc1-2 (configuration not stated) is listed with 3%	>57

Remaining list, next part.
SMILES	LT uptake inh	Prx2 Sm inh
CCN(CC)S(=O)(=O)c1ccc2oc(C(=O)NC(C)C)c(C)c2c1	-9%	>57
Cn1nc(CC(=O)NCCN2C(=O)CSC2=O)c2ccccc2c1=O	7%	>57
Cc1ccc(C(C(=O)NC2CCCCC2)N(CCC(C)C)C(=O)CNC(=O)c2ccco2)o1 (configuration not stated)	9%	>57
COc1ccc(CN2CCN(C(=O)c3cccnc3)CC2)cc1Br	5%	>57
COc1ccccc1N1CCN(C(=O)c2cc(-c3ccco3)on2)CC1	-20%	>57
Cc1nc(/N=C\N(C)C)sc1C(=O)Nc1ccccc1	-32%	.
Cc1cccc(N(CC(=O)NC2CCCC2)C(=O)CS(=O)CC(=O)Nc2ccc3c(c2)OCO3)c1 (configuration not stated)	10%	>57
COC(=O)CN1CCN(C(c2ccccc2)c2ccccc2)CC1	-2%	>57
COc1ccc(C2c3c(oc4ccccc4c3=O)C(=O)N2c2ccc(C)cn2)cc1OC (configuration not stated)	1%	>57

Fetched one by one from the entries so far:
SMILES	LT uptake inh	Prx2 Sm inh
Cc1nc(/N=C\N(C)C)sc1C(=O)Nc1ccccc1	-32%	.
Cc1ccc(C(C(=O)NC2CCCCC2)N(CCC(C)C)C(=O)CNC(=O)c2ccco2)o1 (configuration not stated)	9%	>57
COc1ccccc1N1CCN(C(=O)c2cc(-c3ccco3)on2)CC1	-20%	>57
